Vaccinia inh: blocks a specific stage of Vaccinia orthopoxvirus infection, primary screen, cell-based, single point | activity change (mCherry), % (test concentration not listed) | AID 1053133, 2014 | Vaccinia-infected cells, mCherry/Venus stage reporter fluorescence; active compounds read low; some inactives read as strong as hits | hit rate 0.01% among 89,000;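 active = mCherry past -33% and 40 or more points under the early reporter, replicates agreeing; inconclusive = past -33% without that gap or agreement; tested in A549 cells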;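 also: scaled between vehicle wells and reference inhibitor wells; 23 nL library stock went into each well; one replicate is shown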
Vaccinia inh Venus: recorded beside Vaccinia inh, whose call it bears; activity change (Venus), %; measured here: Venus reporter, other viral stage;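 negative = less Venus signal; first of two replicates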
Active calls of the source: *; ? = inconclusive; nt = not tested or not shown; & = joins results of further samples. An excerpt, so the mix of outcomes need not match the whole.

SMILES,Vaccinia inh,Vaccinia inh Venus
C[C@@H]1CN([C@@H](C)CO)C(=O)Cc2cc(NC(=O)NC3CCCCC3)ccc2O[C@@H]1CN(C)C(=O)Nc1cccc2ccccc12,39,18
COC(=O)C[C@@H]1CC[C@H]2[C@@H](COc3ccc(NS(=O)(=O)c4ccc(F)cc4)cc3C(=O)N2C)O1,9,8
C[C@@H]1CN([C@@H](C)CO)C(=O)c2cc(C#CCc3ccccc3)cnc2O[C@@H]1CN(C)C(=O)C1CCOCC1,13,3
Cc1ccccc1S(=O)(=O)N1CC[C@@H]2[C@H](CO)Nc3ccc(C#Cc4ccccc4)cc3[C@@H]21,?,nt
COc1ccc(C#Cc2ccc([C@H]3[C@@H](CO)N4CCCCN(C(=O)Nc5ccccc5F)C[C@@H]34)cc2)cc1,-29,-13
CC(C)NC(=O)N1Cc2cc(C(=O)NC3CCCCC3)nc(-c3cccc(-c4cccnc4)c3)c2[C@H]1CCO,?,nt
COc1ccc(S(=O)(=O)Nc2ccc3c(c2)C(=O)N([C@H](C)CO)C[C@H](C)[C@@H](CN(C)Cc2ccc(Oc4ccccc4)cc2)O3)cc1,?,nt
C[C@H](CO)N1C[C@H](C)[C@H](CN(C)C(=O)Oc2ccc3ccccc3c2)OCc2cn(nn2)CCCC1=O,-3,9
C[C@@H]1CCCCO[C@@H](CN(C)Cc2ccc(C(=O)O)cc2)[C@H](C)CN([C@H](C)CO)C(=O)c2cc(NC(=O)c3ccccc3)ccc2O1,9,2
Cc1noc(C)c1S(=O)(=O)Nc1ccc2c(c1)CC(=O)N([C@@H](C)CO)C[C@@H](C)[C@@H](CN(C)S(=O)(=O)c1ccc(F)cc1)O2,2,3
C[C@H]1CN([C@@H](C)CO)C(=O)CCCn2nncc2CO[C@@H]1CN(C)Cc1cccc(C(=O)O)c1,19,17
CN(C)CCCNC(=O)[C@@H]1[C@@H](CO)[C@@H]2Cn3c(ccc(-c4ccc(F)cc4)c3=O)[C@H]1N2C,-5,-1
Cc1ccc(S(=O)(=O)Nc2ccc3c(c2)C(=O)N([C@@H](C)CO)C[C@H](C)[C@@H](CN(C)CC2CCCCC2)O3)cc1,-16,-20
COc1ccc2c3c(n(C)c2c1)[C@@H](CO)N(C(=O)C1CCCC1)CC31CN(C)C1,2,-4
CN1C(=O)c2cc(NC(=O)Cc3cccs3)ccc2OC[C@@H]2O[C@@H](CC(=O)NCCCN3CCOCC3)CC[C@H]21,-1,0
C[C@@H]1CN([C@@H](C)CO)S(=O)(=O)c2ccc(C#CC3CC3)cc2O[C@@H]1CN(C)Cc1ccncc1,?,nt
O=C(Nc1ccc(Cl)cc1)N1C[C@H]2[C@@H](c3ccccc31)[C@H](CO)N2C(=O)C1CC1,-1,4
C[C@@H]1CCCCO[C@H](CN(C)Cc2ccccc2)[C@H](C)CN([C@@H](C)CO)C(=O)c2cc(NS(=O)(=O)c3ccc(Cl)cc3)ccc2O1,?,nt
CC(C)C#Cc1ccc([C@@H]2[C@@H](CO)N3C(=O)CN(C(=O)NC4CCCC4)C[C@@H]23)cc1,-16,-11
Cc1noc(C)c1S(=O)(=O)Nc1ccc2c(c1)C(=O)N([C@H](C)CO)C[C@@H](C)[C@@H](CN(C)Cc1ccc(Cl)c(Cl)c1)O2,-23,-17
COc1ccc(NC(=O)Nc2ccc3c(c2)C(=O)N([C@@H](C)CO)C[C@@H](C)[C@@H](CN(C)Cc2ccc4c(c2)OCO4)O3)cc1,?,nt
Cc1noc(C)c1NC(=O)Nc1ccc2c(c1)C(=O)N([C@@H](C)CO)C[C@H](C)[C@@H](CN(C)Cc1ccccc1)OCCCC[C@@H](C)O2,22,12
C[C@@H]1CCCCO[C@H](CN(C)C(=O)Nc2ccccc2)[C@@H](C)CN([C@H](C)CO)C(=O)c2cc(NC(=O)C3CCCCC3)ccc2O1,4,-6
COc1cccc(S(=O)(=O)N[C@@H]2CC[C@@H](CCn3cc(-c4ccccc4OC)nn3)O[C@@H]2CO)c1,-8,4
O=C(C[C@H]1CC[C@H]2[C@@H](COC[C@@H](O)CN2S(=O)(=O)c2ccccc2)O1)NCC1CCCCC1,-17,-15
CCCC#Cc1ccc([C@H]2[C@@H](CO)N(C(C)=O)[C@@H]2CNC(=O)C2CCC2)cc1,-7,-2
N#C[C@@H]1[C@H](c2ccc(-c3ccccc3)cc2)[C@@H](CO)N1C(=O)Cc1ccccc1,-32,-16
C[C@H]1CN([C@@H](C)CO)C(=O)c2cc(NC(=O)c3ccncc3)ccc2O[C@H]1CN(C)C(=O)Nc1ccccc1,18,10
CCN1[C@@H]2c3ccc(-c4ccc(F)cc4)c(=O)n3C[C@H]1[C@H](CO)[C@H]2C(=O)Nc1nccs1,18,5
COc1ccc(CN(C)C[C@H]2Oc3ccc(NC(=O)C4CC4)cc3C(=O)N([C@H](C)CO)C[C@H]2C)cc1,-7,6

New compounds follow
| SMILES | Vaccinia inh | Vaccinia inh Venus |
| --- | --- | --- |
| CCC(=O)N[C@@H]1CC[C@H](CC(=O)NCC2CCCCC2)O[C@@H]1CO | 4 | 13 |
| CN(C)C(=O)c1ccc(-c2ccc3c(c2)[C@@H]2[C@@H](CCN2C(=O)C2CCCCC2)[C@H](CO)N3C)cc1 | ? | nt |
| O=C(N[C@H]1C=C[C@@H](CC(=O)N2CCOCC2)O[C@@H]1CO)c1cccc(F)c1 | -1 | -5 |
| Cc1ccc(S(=O)(=O)Nc2ccc3c(c2)C(=O)N([C@H](C)CO)C[C@@H](C)[C@H](CN(C)S(C)(=O)=O)OCCCC[C@@H](C)O3)cc1 | 12 | -6 |
| C[C@@H]1CN([C@H](C)CO)C(=O)c2ccccc2-c2ccccc2CO[C@@H]1CN(C)S(=O)(=O)c1ccc([N+](=O)[O-])cc1 | -9 | -18 |
| Cc1noc(C)c1NC(=O)N(C)C[C@H]1Oc2ccc(NS(=O)(=O)c3ccc(Cl)cc3)cc2C(=O)N([C@H](C)CO)C[C@@H]1C | 24 | 2 |
| C[C@@H]1CCCCO[C@H](CN(C)S(=O)(=O)c2cccs2)[C@H](C)CN([C@@H](C)CO)C(=O)c2cc(NC(=O)C3CCCCC3)ccc2O1 | -14 | -14 |
| CN1c2ccc(-c3ccc(C#N)cc3)cc2[C@@H]2[C@@H](CCN2C(=O)Nc2ccccc2F)[C@@H]1CO | ? | nt |
| C[C@@H]1CN([C@H](C)CO)C(=O)c2cc(NC(=O)Nc3cccc4ccccc34)ccc2O[C@@H]1CN(C)Cc1ccncc1 | 15 | 16 |
| CNC[C@@H]1OCCCC[C@@H](C)Oc2ccc(NS(=O)(=O)c3cn(C)cn3)cc2C(=O)N([C@H](C)CO)C[C@@H]1C | 31 | 19 |

Compound profiles, as listed above. Order of values: Vaccinia inh | Vaccinia inh Venus
Profile of `CN(C)C(=O)c1ccc(-c2ccc3c(c2)[C@@H]2[C@@H](CCN2C(=O)C2CCCCC2)[C@H](CO)N3C)cc1` → ? | nt
Profile of `CNC[C@@H]1OCCCC[C@@H](C)Oc2ccc(NS(=O)(=O)c3cn(C)cn3)cc2C(=O)N([C@H](C)CO)C[C@@H]1C` → 31 | 19
Profile of `Cc1noc(C)c1NC(=O)N(C)C[C@H]1Oc2ccc(NS(=O)(=O)c3ccc(Cl)cc3)cc2C(=O)N([C@H](C)CO)C[C@@H]1C` → 24 | 2

Following part.
| SMILES | Vaccinia inh | Vaccinia inh Venus |
| --- | --- | --- |
| CO[C@H]1CN(C)C(=O)c2ccc(NC(=O)c3ccccc3F)cc2OC[C@H](C)N(C(C)=O)C[C@@H]1C | 14 | 9 |
| C[C@H](CO)N1C[C@H](C)[C@@H](CN(C)C(=O)Oc2cccc3ccccc23)OCc2cnnn2CCCC1=O | -1 | 0 |
| COc1ccc(NC(=O)Nc2ccc3c(c2)C(=O)N([C@@H](C)CO)C[C@@H](C)[C@@H](CN(C)C(=O)Nc2c(C)noc2C)OCCCC[C@@H](C)O3)cc1 | 1 | 3 |
| COc1ccccc1-c1ccc([C@@H]2[C@@H](CO)N3CCCCN(C(=O)c4ccncc4)C[C@@H]23)cc1 | -3 | -4 |
| CC(C)NC(=O)N(C)C[C@H]1Oc2ccc(NC(=O)Nc3ccccc3)cc2C(=O)N([C@@H](C)CO)C[C@@H]1C | 1 | -6 |
| C[C@@H]1CN([C@@H](C)CO)C(=O)c2cc(NC(=O)Cc3cn(C)c4ccccc34)ccc2O[C@@H]1CN(C)C(=O)Nc1ccc(C(F)(F)F)cc1 | -7 | 1 |
| COc1ccc(S(=O)(=O)Nc2ccc3c(c2)CC(=O)N([C@@H](C)CO)C[C@@H](C)[C@@H](CN(C)S(=O)(=O)c2ccc(Cl)cc2)O3)cc1 | -9 | -5 |
| CCS(=O)(=O)N1CCCCN2[C@H](C1)[C@H](c1ccc(-c3ccc(C#N)cc3)cc1)[C@@H]2CO | -18 | -13 |
| O=C(Nc1ccc2c(c1)OCO2)N[C@H]1CC[C@@H](CCNC(=O)C2CCCC2)O[C@H]1CO | 5 | 14 |
| CNC[C@@H]1Oc2c(NC(=O)Nc3ccc4c(c3)OCO4)cccc2C(=O)N([C@H](C)CO)C[C@H]1C | 1 | -6 |
| C[C@H](CO)N1C[C@H](C)[C@H](CN(C)C(=O)Nc2ccccc2C(F)(F)F)OCc2ccccc2-c2ccccc2C1=O | 12 | -3 |
| Cc1ccccc1-c1ccc([C@H]2[C@@H](CO)N3C(=O)CN(C(=O)Nc4cccc(F)c4)C[C@@H]23)cc1 | ? | nt |
| OC[C@H]1[C@H](c2ccc(-c3ccc(F)cc3)cc2)[C@@H]2CN(Cc3ccncc3)CCCCN12 | -13 | -7 |
| CN1C(=O)c2cc(NC(=O)c3cccc(C#N)c3)ccc2OC[C@H]2O[C@@H](CC(=O)NCCN3CCCC3)CC[C@@H]21 | 0 | 4 |
| C[C@@H]1CCCCO[C@@H](CN(C)C(=O)c2ccccc2)[C@H](C)CN([C@@H](C)CO)C(=O)c2cc(NS(=O)(=O)c3ccc(F)cc3)ccc2O1 | -18 | -18 |
| C[C@H](CO)N1C[C@H](C)[C@H](CN(C)S(=O)(=O)c2cn(C)cn2)Oc2ccc(NC(=O)Cc3ccccc3)cc2C1=O | 3 | 4 |
| Cc1noc(C)c1S(=O)(=O)Nc1ccc2c(c1)C(=O)N([C@@H](C)CO)C[C@H](C)[C@H](CN(C)S(=O)(=O)c1ccc(F)cc1)OCCCC[C@@H](C)O2 | -8 | -14 |
| Cc1noc(C)c1NC(=O)Nc1cccc2c1O[C@@H](CN(C)S(=O)(=O)c1cccs1)[C@@H](C)CN([C@@H](C)CO)C2=O | 7 | 0 |
| Cc1noc(C)c1S(=O)(=O)Nc1ccc2c(c1)CC(=O)N([C@H](C)CO)C[C@@H](C)[C@@H](CN(C)S(=O)(=O)c1c(C)noc1C)O2 | 16 | 12 |
| COc1ccc(S(=O)(=O)Nc2ccc3c(c2)C(=O)N([C@@H](C)CO)C[C@@H](C)[C@@H](CN(C)C(=O)CCC(F)(F)F)OCCCC[C@H](C)O3)cc1 | -1 | -2 |
| CO[C@H]1CN(C)C(=O)c2ccc(NC(=O)c3ccccc3)cc2OC[C@H](C)N(C)C[C@H]1C | 10 | 6 |
| CC=Cc1ccc2n(c1=O)C[C@@H]1[C@@H](CO)[C@H](C(=O)NCCOC)[C@H]2N1Cc1nccs1 (mixture of isomers) | -8 | -8 |
| C[C@@H]1CCCCO[C@H](CN(C)C(=O)c2ccccc2)[C@@H](C)CN([C@H](C)CO)C(=O)c2cc(NC(=O)NC3CCCCC3)ccc2O1 | 21 | 18 |
| C[C@H]1CN([C@@H](C)CO)C(=O)c2cc(-c3cccc(F)c3)cnc2O[C@H]1CN(C)Cc1cncnc1 | 33 | 19 |
| C[C@@H]1CN([C@H](C)CO)C(=O)c2cc(NC(=O)c3ccncc3)ccc2O[C@@H](C)CCCCO[C@@H]1CN(C)Cc1ccc2c(c1)OCO2 | -6 | -2 |
| C[C@H](CO)N1C[C@H](C)[C@@H](CN(C)C(=O)c2ccccc2)Oc2cc(C#C[C@@H](C)O)ccc2S1(=O)=O | 9&11 | 8&7 |
| C[C@H]1CN([C@@H](C)CO)C(=O)c2cc(NS(=O)(=O)c3ccccc3)ccc2O[C@@H]1CN(C)Cc1ccccc1 | 6 | 10 |
| CS(=O)(=O)Nc1ccc2c(c1)[C@@H]1C[C@H](CC(=O)NCc3ccccc3F)O[C@H](CO)[C@@H]1O2 | 3 | 9 |
| CO[C@@H]1CN(C)C(=O)c2cc(NS(=O)(=O)c3ccccc3)ccc2OC[C@@H](C)N(Cc2cccnc2)C[C@@H]1C | -4 | -4 |
| CN1CCN(C(=O)C[C@@H]2C[C@H]3c4cc(NC(=O)Cc5ccncc5)ccc4O[C@H]3[C@@H](CO)O2)CC1 | 4 | -7 |
| Cc1noc(C)c1NC(=O)Nc1cccc2c1O[C@H](CN(C)S(=O)(=O)c1ccc(Cl)cc1)[C@@H](C)CN([C@H](C)CO)C2=O | 17 | 5 |
| CC(C)C#Cc1ccc2c(c1)O[C@@H](CN(C)CC1CCCC1)[C@H](C)CN([C@H](C)CO)S2(=O)=O | ? | nt |
| CC(C)C#Cc1cnc2c(c1)C(=O)N([C@@H](C)CO)C[C@@H](C)[C@H](CN(C)C(=O)Cc1ccncc1)O2 | -6 | -1 |
| COc1ccccc1CNC(=O)C[C@H]1C=C[C@H](NC(=O)CN(C)C)[C@@H](CO)O1 | 15 | 10 |

As entered above.
CC(C)C#Cc1cnc2c(c1)C(=O)N([C@@H](C)CO)C[C@@H](C)[C@H](CN(C)C(=O)Cc1ccncc1)O2 in Vaccinia inh Venus → -1
COc1ccccc1CNC(=O)C[C@H]1C=C[C@H](NC(=O)CN(C)C)[C@@H](CO)O1 in Vaccinia inh Venus → 10
Cc1noc(C)c1NC(=O)Nc1cccc2c1O[C@H](CN(C)S(=O)(=O)c1ccc(Cl)cc1)[C@@H](C)CN([C@H](C)CO)C2=O in Vaccinia inh Venus → 5

Compound activity: PubChem, Broad Institute
